# Assay outcomes (PubChem BioAssay)
# ID4 SMM: binders of human ID4 protein, primary screen, biochemical, small molecule microarray, single point | DNA-binding protein inhibitor ID-4 (Homo sapiens), P47928 | Flag-ID4 binding, fluorescence F/B | calls only | 1.2% of 31,000 active;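 active = spot signal over background at p below 0.07 in all four prints; compounds were printed on slides so no solution concentration is given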;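 note: a binder raises fluorescence above local background on the spot; about 2 pmol printed per array spot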
# Target sequence (P47928 whole entry, looked up): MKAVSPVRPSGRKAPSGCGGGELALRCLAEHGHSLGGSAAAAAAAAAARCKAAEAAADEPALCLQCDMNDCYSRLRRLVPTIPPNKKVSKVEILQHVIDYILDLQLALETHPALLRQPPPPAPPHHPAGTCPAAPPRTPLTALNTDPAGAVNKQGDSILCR
# p53 mut binder: binders of human mutant p53, primary screen, biochemical, small molecule microarray, anti-GST fluorescence; small molecule microarray binding; calls only; 0.4% of 17,000 active; AID 624136, 2012;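 active = compounds whose four printed spots each glow above background more than chance allows, each with a p-value under 7%; compounds were printed on slides so no solution concentration is given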;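 note: about 2 pmol printed per array spot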
# STAT3 SMM: STAT3 binders, primary screen, biochemical, small molecule microarray, single point, set 2. His-STAT3 binding, anti-His fluorescence. 0.2% of 17,000 active. calls only;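 active = compounds whose four printed spots each show fluorescence over background unusually high for their array block, chance value under 7%; compounds were printed on slides so no solution concentration is given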;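 note: about 2 pmol printed per array spot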
# c-Myc SMM: binders of human c-Myc, primary screen, biochemical, small molecule microarray, anti-His fluorescence; His-c-Myc binding; calls only; 1.5% of 17,000 active;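 active = spot fluorescence over background with P-value below 7% in all four replicate spots, showing protein binding; compounds were printed on slides so no solution concentration is given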;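 note: score is binary with 100 for all four spots passing and 0 otherwise; about 2 pmol printed per array spot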
# Target sequence (P01106 whole entry, looked up): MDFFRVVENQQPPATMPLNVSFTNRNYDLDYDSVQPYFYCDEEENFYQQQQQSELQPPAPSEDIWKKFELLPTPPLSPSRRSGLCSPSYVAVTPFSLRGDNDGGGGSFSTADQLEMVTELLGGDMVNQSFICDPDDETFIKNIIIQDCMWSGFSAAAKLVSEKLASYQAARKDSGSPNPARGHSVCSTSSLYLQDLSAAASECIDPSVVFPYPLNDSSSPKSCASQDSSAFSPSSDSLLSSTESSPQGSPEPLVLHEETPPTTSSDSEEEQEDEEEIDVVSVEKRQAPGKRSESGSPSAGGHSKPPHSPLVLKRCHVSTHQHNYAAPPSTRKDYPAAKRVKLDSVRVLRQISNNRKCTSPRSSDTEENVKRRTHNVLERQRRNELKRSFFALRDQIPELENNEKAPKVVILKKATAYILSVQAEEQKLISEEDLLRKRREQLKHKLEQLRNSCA
# Calls only; i = inactive; . = not tested or not shown; + = active, no number. The list is partial; rates above refer to the full screens.
molecule | ID4 SMM | p53 mut binder | STAT3 SMM | c-Myc SMM
CCC(CO)NC(=O)C1C=C2c3cccc4[nH]cc(c34)CC2N(C)C1 (configuration not stated) | i | i | i | +
CCN1C[C@]2(C)CC[C@H](O)[C@@]34C2[C@H](OC)C([C@@H]13)[C@@]1(O)C[C@H](OC)[C@H]2C[C@@H]4[C@@H]1[C@H]2O | i | i | i | i
COC(=O)CC1(CC(=O)OC)C(=O)N(C)C(=O)N(C)C1=O | i | i | i | i
CC1=CC(=O)C2=C(C)C[C@H](O)[C@@H]3[C@H](OC(=O)[C@H]3C)[C@@H]12 | i | i | i | i
C[C@]12CC[C@H](O)C[C@H]1CC[C@@H]1[C@@H]2CC[C@]2(C)[C@@H](C3=CC(=O)OC3)CC[C@]12O | . | i | i | i
C[C@H](CO)N1C[C@H](C)[C@H](CN(C)C(=O)Oc2ccc3ccccc3c2)OCc2cnnn2CCCC1=O | i | i | i | i
CCCN(CCC)CCc1c[nH]c2ccc(C(N)=O)cc12 | i | i | i | i
CCN1C[C@]2(COC)[C@H](O)C[C@H](OC)[C@@]34[C@@H]5C[C@]6(O)[C@H](OC(=O)c7ccccc7)[C@@H]5[C@@](OC(C)=O)(C([C@H](OC)[C@H]23)[C@@H]14)[C@@H](O)[C@@H]6OC | . | i | i | i
O=C1NC(=O)c2c1c1c3ccccc3[nH]c1c1[nH]c3ccccc3c21 | i | i | i | i
C=C(C)CN1CC[C@]23c4c5ccc(O)c4O[C@H]2c2[nH]c4ccccc4c2C[C@@]3(O)C1C5 | i | i | i | i
C/C1=C/[C@@H](C)C/C=C/[C@H]2[C@@H]3O[C@]3(C)[C@@H](C)[C@H]3[C@H](Cc4c[nH]c5ccccc45)NC(=O)[C@]32C(=O)/C=C\C(=O)[C@@H]1O | . | i | i | i
O=C1Nc2cc(Cl)c(Cl)cc2N2CCNCC12 (configuration not stated) | i | i | i | i
CC(C)[C@H]1C(=O)N2CCC[C@H]2[C@]2(O)O[C@](NC(=O)[C@@H]3C=C4c5cccc6[nH]cc(c56)C[C@H]4N(C)C3)(C(C)C)C(=O)N12 | i | i | i | i
CO[C@H]1[C@@H](O)[C@@H](C)O[C@@H](OC2CCC3(C)C(CC[C@@H]4[C@@H]3CCC3(C)C(C5=CC(=O)OC5)C(O)CC43O)C2)[C@@H]1O (some centres not stated) | i | i | i | i
CC[C@@H](C)C(=O)O[C@H]1[C@H](O)[C@H]2[C@@H](CN3C[C@@H](C)CC[C@H]3[C@@]2(C)O)C2C[C@]34O[C@@]5(O)[C@@H](OC(=O)[C@](C)(O)CC)CC[C@@]3(C)[C@@H]5[C@@H](OC(C)=O)[C@@H](OC(C)=O)[C@H]4[C@@]21O (some centres not stated) | . | i | i | i
CN1CCCCC1c1ccc(-c2cccnc2)nc1 (configuration not stated) | i | i | i | i
COC(=O)[C@H]1O[C@@H]2C[C@H]3OC(n4cnc5c(N)ncnc54)[C@H](OC)[C@H]3O[C@@]2(O)[C@@H](O)[C@@H]1O (some centres not stated) | . | i | i | i
COC(=O)C12CC3CC(C(C)O)C1N(CCc1c2[nH]c2ccc(OC)cc12)C3 (configuration not stated) | . | i | i | i
COC1CC(OC2CCC3(C)C(CCC4C3CCC3(C)C(C5=CC(=O)OC5)C(OC(C)=O)CC43O)C2)OC(C)C1OC1OC(COC2OC(CO)C(O)C(O)C2O)C(O)C(O)C1O (configuration not stated) | i | i | i | i
CCOC(=O)c1ncn2c1C1CCCN1C(=O)c1cc(OC)ccc1-2 (configuration not stated) | i | i | i | i
CCOC(=O)[C@@H]1[C@@H]2NC(=O)N(C)[C@@]1(COCc1ccc(OC)cc1)Oc1ccccc12 | i | i | i | i
CCC1CN2CCC3(C(=O)Nc4cccc(O)c43)C2CC1/C(=C/OC)C(=O)OC (configuration not stated) | i | i | i | i
C[C@@H]1CN([C@H](C)CO)C(=O)CCCn2cc(nn2)CO[C@H]1CN(C)C(=O)Oc1ccc2ccccc2c1 | i | i | i | i
CCCN(CCC)[C@@H]1CCc2cccc(O)c2C1 | i | i | i | i
C=CCN1CCc2cccc3c2[C@H]1Cc1ccc(O)c(O)c1-3 | i | i | i | i
CC(CCc1ccc(O)cc1)O[C@@H]1O[C@H](CO[C@H]2OC[C@](O)(CO)[C@H]2O)[C@@H](O)[C@H](O)[C@H]1O (some centres not stated) | i | i | i | i
C=C[C@H]1[C@H](O[C@@H]2O[C@H](CO)[C@@H](O)[C@H](O)[C@H]2O)OC=C2C(=O)OCC[C@H]21 | . | i | i | i
c1cncc([C@H]2CCCCN2)c1 | i | i | i | i
COC1CC(O[C@H]2CC[C@@]3(C)C(CCC4C3CC[C@]3(C)C(C5=CC(=O)OC5)CCC43O)C2)OC(C)C1OC1OC(COC2OC(CO)C(O)C(O)C2O)C(O)C(O)C1O (some centres not stated) | i | i | i | i
N#C[C@@H](OC1OC(COC2OCC(O)C(O)C2O)C(O)C(O)C1O)c1ccccc1 (some centres not stated) | i | i | i | i
CCN(CC)CCOC1CCC2(C)C(=CCC3C4CCC(=O)C4(C)CCC32)C1 (configuration not stated) | i | i | i | i
N[C@H](CO)Cc1ccccc1 | i | i | i | i
Cc1ccc2c(c1)C1(CCN(CCc3nc(-c4ccccc4)oc3C)CC1)OC(=O)N2 | i | i | i | i
CC(C)c1cc2c(cc1O)[C@@]1(C)CCCC(C)(C)[C@@H]1CC2O (some centres not stated) | i | i | i | i
Nc1ccc(CCN2CCN(c3cccc(C(F)(F)F)c3)CC2)cc1 | i | i | i | i
C[C@H]1O[C@@H](O[C@H]2CC[C@]3(CO)C4CC[C@]5(C)[C@@H](C6=CC(=O)OC6)CC[C@]5(O)[C@@H]4CC[C@H]3C2)[C@H](O)[C@H](O)[C@@H]1O[C@@H]1O[C@H](CO)[C@@H](O)[C@H](O)[C@H]1O (some centres not stated) | i | i | i | i
C[C@@H]1CN([C@H](C)CO)C(=O)CCCn2nncc2CO[C@@H]1CN(C)C(=O)Oc1ccc2ccccc2c1 | i | i | i | i
CO[C@H]1[C@H](O)[C@H](O[C@H]2CC[C@]3(C)C4CC[C@]5(C)[C@H](C6=CC(=O)OC6)CC[C@]5(O)C4CC[C@@H]3C2)O[C@@H](C)[C@@H]1O[C@@H]1O[C@H](CO[C@@H]2O[C@H](CO)[C@@H](O)[C@H](O)[C@H]2O)[C@@H](O)[C@H](O)[C@H]1O (some centres not stated) | i | i | i | i
COc1cc2c(cc1O)C1Cc3ccc(OC)c(O)c3CN1CC2 (configuration not stated) | i | i | i | i
Cc1cc(OCc2cc(C(=O)O)oc2C)c2c3c(c(=O)oc2c1)CCCC3 | i | i | i | i
Clc1ccc(C2CC3CCC2N3)cn1 (configuration not stated) | i | i | i | i
COC(=O)C=CC(=O)NC1CCC2(O)C3Cc4ccc(O)c5c4C2(CCN3CC2CC2)C1O5 (configuration not stated) | i | i | i | i
COc1cc2c(cc1O)[C@@H]1Cc3ccc(OC)c(O)c3CN1CC2 | i | i | i | i
Cc1ccc2c(c1)Cc1c(C(=O)NC3CCCCC3)nn(-c3ccc(Cl)cc3Cl)c1-2 | i | i | i | i
CC1=CC(=O)C2=C(C)C[C@H](O)[C@@H]3[C@H](OC(=O)[C@@H]3C)[C@@H]12 | . | i | i | i
O=C1CCCC2C3CC(CN12)[C@@H]1CCCCN1C3 (some centres not stated) | i | i | i | i
c1ccc2sc(C3(N4CCCC4)CCCCC3)cc2c1 | i | i | i | i

# Part of the list above, as labelled records:
Cc1ccc2c(c1)Cc1c(C(=O)NC3CCCCC3)nn(-c3ccc(Cl)cc3Cl)c1-2
  ID4 SMM: i | p53 mut binder: i | STAT3 SMM: i | c-Myc SMM: i

O=C1CCCC2C3CC(CN12)[C@@H]1CCCCN1C3 (some centres not stated)
  ID4 SMM: i | p53 mut binder: i | STAT3 SMM: i | c-Myc SMM: i

# Sorted by length of the SMILES (descending): part of the list above.
molecule | ID4 SMM | p53 mut binder | STAT3 SMM | c-Myc SMM
CC[C@@H](C)C(=O)O[C@H]1[C@H](O)[C@H]2[C@@H](CN3C[C@@H](C)CC[C@H]3[C@@]2(C)O)C2C[C@]34O[C@@]5(O)[C@@H](OC(=O)[C@](C)(O)CC)CC[C@@]3(C)[C@@H]5[C@@H](OC(C)=O)[C@@H](OC(C)=O)[C@H]4[C@@]21O (some centres not stated) | . | i | i | i
CO[C@H]1[C@@H](O)[C@@H](C)O[C@@H](OC2CCC3(C)C(CC[C@@H]4[C@@H]3CCC3(C)C(C5=CC(=O)OC5)C(O)CC43O)C2)[C@@H]1O (some centres not stated) | i | i | i | i
C[C@]12CC[C@H](O)C[C@H]1CC[C@@H]1[C@@H]2CC[C@]2(C)[C@@H](C3=CC(=O)OC3)CC[C@]12O | . | i | i | i
COC(=O)C12CC3CC(C(C)O)C1N(CCc1c2[nH]c2ccc(OC)cc12)C3 (configuration not stated) | . | i | i | i
